Assay outcomes from PubChem BioAssay.
CtBP-E1A inh: blocks the CtBP interaction with E1A; activity change, % (no concentration beside the values); actives 0.49% (n = 340,000); AlphaScreen GST-E1A/His-CtBP binding, 1536-well; stronger effect = lower value; control for the full effect not named in the record; in the data active means activity change below about -65%; inconclusive means about -30% to -65%; inactive means above about -30%; also: % is scaled to controls: 0 for no effect and ±100 for the full control effect; compound concentration not given in the record
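Homogeneous bead-based format: GST-tagged E1A captured on glutathione donor beads, His-tagged CtBP on nickel acceptor beads; compounds precede bead addition by 2 h at 37 °C.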
D2 PAM: human D2 receptor positive allosteric modulation; potentiation, % (no concentration beside the values); actives 0.23% (n = 360,000); DiscoveRx D2 beta-arrestin cells, luminescence, 90 min; 100% = 57 uM dopamine signal; P14416; AID 624464; active = potentiation of 50% or more; inconclusive = 30% to 50%; inactive = 30% or less;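 also: compound concentration not given in the record; tested on top of an EC20 dose of dopamine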
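PathHunter beta-arrestin assay in DiscoveRx D2 cells. Compounds were added with an EC20 of dopamine (50 nM final) for 90 min at 37 deg C. Luminescence was read 1 h after detection reagent, with 57 uM dopamine as the EC100 control.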
TRPML1 inh: blocks the human TRPML1 channel | Q9GZU1 | TRPML1-inducible cells, Ca2+ dye fluorescence, FDSS; stronger effect = lower value; inhibition of EC80 agonist-evoked calcium signal | activity change, negative = inhibition, % (concentration not given with the values) | actives 0.02% (n = 390,000); in the data active means activity change below about -50%; inconclusive means about -30% to -50%; inactive means above about -30%;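 also: stimulus is agonist 54-4 at its EC80 concentration; % is scaled to controls: 0 for no effect and ±100 for the full control effect; compound concentration not given in the record; the text of the record puts the active cut at -80%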
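Tet-induced TRPML1-DL cells loaded with Ca8 no-wash calcium dye were read kinetically on FDSS. Compound addition was followed by EC80 agonist 54-4 (4 uM final); inhibition was read over 110 s.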
TRPV1 potentiator: human TRPV1 potentiation | Q8NER1 | TRPV1-expressing cells, Fluo-8 calcium influx, capsaicin EC20 potentiation; host cell line not named in the record; control for the full effect not named in the record | potentiation, % at 8.33 µM | actives 0.02% (n = 320,000); active means potentiation above 80%; inconclusive means 30% to 80%; inactive means below 30%; also: 0% is about no effect
Target sequence (Q8NER1 whole entry, looked up): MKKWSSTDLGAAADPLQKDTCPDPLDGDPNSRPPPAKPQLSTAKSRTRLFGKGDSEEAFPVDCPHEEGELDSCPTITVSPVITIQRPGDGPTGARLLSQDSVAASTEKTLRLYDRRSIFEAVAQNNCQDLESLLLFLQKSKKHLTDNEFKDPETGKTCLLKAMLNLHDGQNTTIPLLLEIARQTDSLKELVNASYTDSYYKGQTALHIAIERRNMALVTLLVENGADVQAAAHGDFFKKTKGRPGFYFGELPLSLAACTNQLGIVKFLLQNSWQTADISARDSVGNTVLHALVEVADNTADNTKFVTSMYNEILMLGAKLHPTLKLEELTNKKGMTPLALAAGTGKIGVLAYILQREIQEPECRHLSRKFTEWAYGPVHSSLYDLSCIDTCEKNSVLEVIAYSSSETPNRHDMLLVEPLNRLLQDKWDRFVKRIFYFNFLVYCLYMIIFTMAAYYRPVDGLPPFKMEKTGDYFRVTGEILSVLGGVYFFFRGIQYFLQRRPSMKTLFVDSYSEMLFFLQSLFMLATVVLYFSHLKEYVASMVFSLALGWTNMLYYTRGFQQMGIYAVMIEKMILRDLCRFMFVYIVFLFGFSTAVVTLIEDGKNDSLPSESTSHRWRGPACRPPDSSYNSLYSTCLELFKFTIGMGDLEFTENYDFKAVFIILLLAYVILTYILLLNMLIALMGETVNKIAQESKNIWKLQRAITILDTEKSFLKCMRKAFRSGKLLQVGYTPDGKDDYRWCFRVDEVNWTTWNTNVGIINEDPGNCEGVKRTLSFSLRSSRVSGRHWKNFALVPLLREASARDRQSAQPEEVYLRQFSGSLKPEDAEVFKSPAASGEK
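Fluo-8 calcium influx in TRPV1-expressing cells, kinetic read (ex 480/em 520 nm). Compound added and read 3 min for agonist activity, followed by capsaicin at EC20 final and 2 min further read for enhancement.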
Six1-Eya2 blk: Six1/Eya2 interaction inhibition | Q15475+O00167 | AlphaScreen GST-Six1/His-Eya2 binding, biochemical; stronger effect = lower value; control for the full effect not named in the record | activity change, % (concentration not given with the values) | actives 0.56% (n = 360,000); in the data active = activity change below about -65%; inconclusive = about -30% to -65%; inactive = above about -30%; also: % is scaled to controls: 0 for no effect and ±100 for the full control effect
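AlphaScreen with GST-Six1 and His-Eya2 (5X mix: 250 nM and 500 nM), glutathione donor and nickel acceptor beads; buffer 50 mM Tris pH 8.0, 300 mM NaCl, 1 mM TCEP; 1 h at 37 C in the dark.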
TRPML1 agonist: agonists of human TRPML1 channel. AID 624414. TRPML1-expressing cells, Ca2+ dye fluorescence, FDSS; host cell line not named in the record; reference of the full effect not given here. actives 0.12% (n = 410,000). activation, % (no concentration beside the values). Q9GZU1; in the data active = activation above about 50%; inconclusive = about 30% to 50%; inactive = below about 30%; also: 0% is about no effect; the text of the record puts the active cut at 80%
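TRPML1-DL cells, Tet-induced overnight (~16 h, 37 degrees C), loaded 45-90 min at room temperature with Ca8 no-wash calcium dye plus quencher. FDSS fluorescence: 10 s baseline, compound pin-transfer, 110 s agonist read, then EC80 54-4 (4uM final) and 110 s antagonist read.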
Starred values were filed as active, the others as inactive; ? = inconclusive; / = no result given.

No. | SMILES | CtBP-E1A inh | D2 PAM | TRPML1 inh | TRPV1 potentiator | Six1-Eya2 blk | TRPML1 agonist
1 | C=CCn1c(COc2ccc(F)cc2)nnc1SCC(=O)NC1CCCC1 | 2 | -35 | -12 | 6 | 7 | 0.9
2 | Cc1cccc(NC(=O)c2cc(Cl)ccc2[N+](=O)[O-])c1 | -6 | 13 | -1 | 2 | 1 | -0.8
3 | C[C@H]1CN([C@@H](C)CO)C(=O)Cc2cc(NC(=O)Cn3cnnn3)ccc2O[C@H]1CN(C)Cc1ccncc1 | 6 | / | -1 | / | 5 | -0.2
4 | O=C(CCCl)Nc1ccc(S(=O)(=O)NCc2ccco2)cc1 | 8 | -1 | -5 | -19 | 0 | -0.5
5 | O=C(NCCc1ccccc1)c1cccc(NC(=O)C2CCCC2)c1 | 3 | -2 | 13 | / | 1 | -1.3
6 | COc1ccc(C2C(C(=O)N3CCCCC3)CCC(=O)N2c2cc(OC)c(OC)c(OC)c2)cc1 (configuration not stated) | 2 | -15 | -8 | -31 | -1 | -0.3
7 | O=C(Nc1ccc2c(c1)OCO2)C1CCCN1C(=O)Nc1ccccc1F (configuration not stated) | 2 | -1 | -11 | -7 | 3 | -0.2
8 | CCOc1ccc(S(=O)(=O)N2CCN(C(=O)C3CCC3)CC2)cc1 | 7 | 20 | 5 | -20 | 0 | -0.8
9 | Cc1ccc(C(=O)CSc2nnc(-c3ccccc3)n2-c2ccccc2)o1 | 2 | 0 | 7 | -17 | 3 | 1.1
10 | Cc1onc(-c2ccccc2Cl)c1C(=O)NCCN1CCOCC1 | 8 | 8 | -17 | 3 | 11 | 0.9
11 | CCN(CC)S(=O)(=O)c1cccc(C(=O)Nc2nc3cc4c(cc3s2)OCCO4)c1 | -24 | -10 | 8 | 28 | -1 | 2.6
12 | Cc1ccc(S(=O)(=O)N(C)c2ccc(C(=O)NCCc3ccccc3)cc2)cc1 | 6 | 12 | 23 | -6 | 2 | 0.7

The list continues:
No. | SMILES | CtBP-E1A inh | D2 PAM | TRPML1 inh | TRPV1 potentiator | Six1-Eya2 blk | TRPML1 agonist
13 | COc1ccc(S(=O)(=O)N(C)C2CCS(=O)(=O)C2)cc1OC (configuration not stated) | 2 | -17 | 20 | 10 | 3 | 0.2
14 | N=c1c(C(=O)NCC2CCCO2)cc2c(=O)n3ccccc3nc2n1Cc1ccc(Cl)cc1 (configuration not stated) | / | -17 | -11 | -2 | 6 | -0.1
15 | CCOc1ccc(N2C(=O)/C(=C/c3ccco3)N(C)C2=S)cc1 | 4 | -18 | 9 | 0 | -1 | -0.3
16 | Cc1ccc(NC(=O)c2cccc(C(=O)Nc3ccc(C)c(C)c3)n2)cc1C | -4 | -3 | 84 | -3 | -8 | -0.3
17 | CC#CCN(Cc1ccco1)C(=O)C1CCC(=O)N(CCc2cccc(F)c2)C1 (configuration not stated) | 2 | -2 | 5 | / | 3 | -0.2
18 | COc1ccc(/C=N\NC(=O)c2ccccc2OC)cc1COc1ccccc1C | -1 | 0 | 12 | -2 | 1 | 1.9
19 | O=C(CSc1ncc(-c2ccc(F)cc2)[nH]1)NCc1ccco1 | 14 | -4 | -5 | -10 | -5 | 0.6
20 | CC(C)n1c(SCC(=O)NCc2ccco2)nnc1C1CC1 | 4 | -20 | -3 | -2 | -2 | -0.2
21 | O=C1c2ccccc2C(=O)c2c1ccc1c(=O)n(C3CCCCC3)[nH]c21 | -16 | 24 | -3 | -10 | -7 | 0.0
22 | Cc1cc(OCC(=O)Nc2ccc(CN3CCOCC3)cc2)ccc1Cl | -5 | -4 | -7 | -7 | 7 | 0.3
23 | O=C(Nc1ccc(F)cc1F)N1CCN(c2ncccn2)CC1 | -1 | -6 | -7 | 16 | 6 | 0.0
24 | CN(Cc1ccc(F)cc1)C(=O)CNC(=O)c1cccs1 | 1 | -2 | -12 | 1 | 1 | 0.8

Further structures.
No. | SMILES | CtBP-E1A inh | D2 PAM | TRPML1 inh | TRPV1 potentiator | Six1-Eya2 blk | TRPML1 agonist
25 | Cc1cc(NC(=O)c2ccc(Cl)cc2)c(C)cc1O | 4 | 0 | -29 | -17 | 5 | -0.8
26 | COc1ccccc1NC(=O)C1CCCCC1 | 2 | 4 | -2 | -3 | 6 | -0.1
27 | COc1ccc(C(=O)OCCNC(=O)c2c(Cl)nc3ccccn23)cc1 | -5 | 11 | -3 | 7 | -10 | -1.0
28 | COCCN(C(=O)c1ccco1)C(C(=O)NC1CCCC1)c1cccs1 (configuration not stated) | -10 | 5 | -6 | -5 | -20 | -0.8
29 | O=C(COC(=O)/C=C/c1ccc(C(F)(F)F)cc1)NC1CCCC1 | -10 | -6 | 4 | -8 | -10 | 0.8
30 | CCS(=O)(=O)c1ccc(O)c(NC(=O)COc2ccc(OC)cc2)c1 | 11 | -5 | 8 | 2 | -1 | 25
31 | N#Cc1ccc(OCC(=O)Nc2ccc(N3CCCC3)cc2)cc1 | / | -1 | 0 | -10 | -6 | -0.1
32 | CN(c1ccccc1)S(=O)(=O)c1ccc(C(=O)OCC(=O)NC(N)=O)cc1 | / | -13 | -5 | -5 | 1 | -0.4
33 | CC1CCC(NC(=O)C2CCC(CNS(=O)(=O)c3cccc4cccnc34)CC2)CC1 (configuration not stated) | -2 | -7 | -11 | 19 | -1 | 2.5
34 | COc1ccccc1NC(=O)c1ccc(NC(=O)COC(=O)C(C)C)cc1 | -1 | -8 | 32 | 1 | 0 | -0.2
35 | CCOc1cc(C)c(S(=O)(=O)NC2CCCCC2)cc1C | -1 | -6 | 69 | -13 | -2 | 0.3
36 | C/C(=N\NC(=O)COc1ccc(C)cc1C(C)C)c1ccc(-n2ccnc2)cc1 | -10 | 11 | -5 | -6 | -5 | 1.9

Laid out differently: results already given.
24. CN(Cc1ccc(F)cc1)C(=O)CNC(=O)c1cccs1
25. Cc1cc(NC(=O)c2ccc(Cl)cc2)c(C)cc1O
26. COc1ccccc1NC(=O)C1CCCCC1
27. COc1ccc(C(=O)OCCNC(=O)c2c(Cl)nc3ccccn23)cc1
28. COCCN(C(=O)c1ccco1)C(C(=O)NC1CCCC1)c1cccs1 (configuration not stated)
29. O=C(COC(=O)/C=C/c1ccc(C(F)(F)F)cc1)NC1CCCC1
30. CCS(=O)(=O)c1ccc(O)c(NC(=O)COc2ccc(OC)cc2)c1
31. N#Cc1ccc(OCC(=O)Nc2ccc(N3CCCC3)cc2)cc1
32. CN(c1ccccc1)S(=O)(=O)c1ccc(C(=O)OCC(=O)NC(N)=O)cc1
33. CC1CCC(NC(=O)C2CCC(CNS(=O)(=O)c3cccc4cccnc34)CC2)CC1 (configuration not stated)
34. COc1ccccc1NC(=O)c1ccc(NC(=O)COC(=O)C(C)C)cc1
35. CCOc1cc(C)c(S(=O)(=O)NC2CCCCC2)cc1C

assay / entry	24	25	26	27	28	29	30	31	32	33	34	35
CtBP-E1A inh	1	4	2	-5	-10	-10	11	/	/	-2	-1	-1
D2 PAM	-2	0	4	11	5	-6	-5	-1	-13	-7	-8	-6
TRPML1 inh	-12	-29	-2	-3	-6	4	8	0	-5	-11	32	69
TRPV1 potentiator	1	-17	-3	7	-5	-8	2	-10	-5	19	1	-13
Six1-Eya2 blk	1	5	6	-10	-20	-10	-1	-6	1	-1	0	-2
TRPML1 agonist	0.8	-0.8	-0.1	-1.0	-0.8	0.8	25	-0.1	-0.4	2.5	-0.2	0.3

36. C/C(=N\NC(=O)COc1ccc(C)cc1C(C)C)c1ccc(-n2ccnc2)cc1

assay / entry	36
CtBP-E1A inh	-10
D2 PAM	11
TRPML1 inh	-5
TRPV1 potentiator	-6
Six1-Eya2 blk	-5
TRPML1 agonist	1.9

Additional compounds.
No. | SMILES | CtBP-E1A inh | D2 PAM | TRPML1 inh | TRPV1 potentiator | Six1-Eya2 blk | TRPML1 agonist
37 | CCOc1ccc(C(=O)C2CCN(C(=O)c3ccc([N+](=O)[O-])cc3)CC2)cc1 | / | 10 | 13 | 9 | 2 | -0.7
38 | c1ccc(CN2CCC3CC2c2c3cccc2N2CCOCC2)cc1 (configuration not stated) | 1 | -4 | / | / | -12 | -0.4
39 | COc1ccc(CCCN2CCC(CN3CCNC(=O)C3=O)CC2)cc1OC | 3 | 0 | -5 | / | 4 | 0.2
40 | O=C1NC[C@H](Cc2ccccc2)N(CC2CCN(CCc3ccccc3)CC2)C1=O | 0 | -21 | -4 | / | 3 | 0.3
41 | CC(/C=C/c1ccccc1)=N\NC(=O)c1ccc(Br)cc1 | -14 | -32 | -6 | -3 | -3 | -0.2
42 | CCOC(=O)CSc1nc2c(c(=O)[nH]c(=O)n2C)n1C/C=C(/C)Cl | 0 | -4 | 1 | 1 | 3 | 0.7
43 | COCCNC(=O)Nc1ccc2nc(C)sc2c1 | -4 | -12 | -2 | -4 | -12 | -0.3
44 | COC(=O)C[C@@H]1C[C@H]2c3cc(NC(=O)CC4CC4)ccc3O[C@H]2[C@@H](CO)O1 | 2 | 8 | 5 | / | -1 | 0.3
45 | CCOc1ccc(N=C2NC(=O)S/C2=C\c2ccc(O)cc2)cc1 | -10 | -22 | -6 | -20 | -19 | 0.0
46 | Cc1c(Cl)cccc1NC(=O)CSc1nc(=O)n(CCCN2CCOCC2)c2c1CCCC2 | 0 | -22 | 4 | / | -1 | -0.4
47 | COc1cc2c(cc1OC)CN(c1nc(CN3CCOCC3)nc3sc4c(c13)CCCC4)CC2 | -21 | -28 | 49 | -3 | -26 | 0.7
48 | C=CCN(CC=C)C(=S)NC(=O)Cc1cccc2ccccc12 | / | -9 | -27 | -2 | -12 | 9.4

Remaining list, next part:
No. | SMILES | CtBP-E1A inh | D2 PAM | TRPML1 inh | TRPV1 potentiator | Six1-Eya2 blk | TRPML1 agonist
49 | N=C1/C(=C\c2ccc(OC(=O)c3ccco3)cc2)C(=O)N=C2SC(N3CCCCC3)=NN12 | ? | -11 | -1 | -13 | -5 | -0.3
50 | O=C(c1ccccc1)c1sc(Nc2ccc3c(c2)OCO3)nc1-c1ccccc1 | -15 | 3 | / | / | -12 | -0.1
51 | CCCCN1CC(C(=O)NC2CCCCC2)CC1=O (configuration not stated) | -1 | -7 | -15 | 26 | 18 | -0.3
52 | COc1cc(NC(=O)CCc2nnc3ccc(N4CCOCC4)nn23)cc(OC)c1OC | 2 | -8 | -6 | 1 | 1 | -0.5
53 | CC1=C(C(=O)N(C(C)C)C(C)C)CC(CC(=O)NC2CCCC2)C(=O)N1Cc1ccccc1 (configuration not stated) | -25 | -1 | -18 | / | 2 | 0.1
54 | CCOC(=O)c1cnc2nc(COc3ccccc3)[nH]n2c1=O | 3 | -8 | -15 | -28 | -1 | -0.6
55 | CCCOc1ccc(C(=O)NCCCn2ccnc2)cc1 | 6 | -5 | -17 | 10 | 1 | 1.6
56 | Cc1cccc(CSCc2ccc(C(=O)O)o2)c1 | / | -2 | -2 | 7 | -1 | 1.2
57 | CC(C)Cn1c(-c2ccc(C#N)cc2)nc2c1c(=O)[nH]c(=O)n2CC(C)C | -3 | -12 | 6 | -2 | -3 | 1.0
58 | CCC(C)NCCCCOc1ccc(C)cc1[N+](=O)[O-] (configuration not stated) | 0 | -22 | -20 | -2 | 1 | 0.6
59 | COc1ccc(N2CCN(C(CNC(=O)C(=O)NCc3ccncc3)c3ccco3)CC2)cc1 (configuration not stated) | -13 | -11 | / | 23 | 1 | /
